Beta2AR agonist = activates human beta-2 adrenergic receptor causing internalization | P07550 | Am2.2-beta2AR cells, FAP receptor internalization, flow cytometry; reference of the scale not given here | response, % (concentration not given with the values) | 340,000 compounds, 0.43% hits;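 active means response above a set limit, near 3 SD of response in nonfluorescent compounds, cut at about 42% in these data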;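 further: stock transfer was 100 nL into about 11 µL; a reference agonist was the positive control; negative values mostly stem from fluorescent compounds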
HNF4A DNA FP = change in binding of human HNF4 alpha to DNA; P41235; HNF4a-FITC DNA binding, fluorescence polarization, 1 h; activity change, % at 10 µM; 360,000 compounds, 0.3% hits; AID 1224865; in the data active means activity change above about 30%, passing the limit was not always enough;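 further: controls were the assay level and a saturating level of protein; the project sought stronger binding though the title names inhibitors; some compounds called inactive have numbers as strong as hits; positive values seem to mean higher polarization but the record does not say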
Target sequence (P41235 whole entry, looked up): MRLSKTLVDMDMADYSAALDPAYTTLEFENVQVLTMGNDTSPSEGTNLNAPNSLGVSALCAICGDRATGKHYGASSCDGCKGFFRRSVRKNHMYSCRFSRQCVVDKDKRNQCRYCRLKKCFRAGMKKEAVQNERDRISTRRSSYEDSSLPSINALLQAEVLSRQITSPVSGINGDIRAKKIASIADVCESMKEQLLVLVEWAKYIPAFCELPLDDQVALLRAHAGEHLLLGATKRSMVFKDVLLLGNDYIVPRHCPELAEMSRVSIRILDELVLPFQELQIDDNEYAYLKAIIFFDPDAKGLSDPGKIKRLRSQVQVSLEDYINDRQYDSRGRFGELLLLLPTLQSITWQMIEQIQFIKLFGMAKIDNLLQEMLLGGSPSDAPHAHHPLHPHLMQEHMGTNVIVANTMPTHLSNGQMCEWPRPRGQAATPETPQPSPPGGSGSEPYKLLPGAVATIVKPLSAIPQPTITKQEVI
LANA-H2B inh = blocks KSHV LANA binding to histone H2A/H2B. Q9QR71. cell-free LANA-H2A/H2B peptide, fluorescence polarization. inhibition, % (concentration not given with the values). 320,000 compounds, 0.6% hits; in the data active means inhibition mostly above about 10%, no sharp cut-off; inactive means mostly below about 6.7%;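 further: stock transfer was 7.5 nL into about 10 µL; 0% = median of vehicle wells and 100% = median of positive control wells; one replicate is shown; the record names a cut of 25% in any replicate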
Vif A3G = HIV-1 Vif–A3G interaction blockers – biochemical, TR-FRET, GST-Vif 1-94, biotin-A3G peptide, dose response retest, primary screen (AID 1117319) | TR-FRET GST-Vif / biotin-A3G peptide binding; higher % means a stronger effect; test concentration not given here; strong numbers were not always called active | inhibition, %, or IC50 in µM where a hit was titrated | 260,000 compounds, 0.57% hits;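 active means above the screen mean plus three standard deviations and confirmed in dose response; inconclusive means results disagree or hit not tested in dose response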;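 further: Vif residues 1-94 fused to GST binding biotinylated APOBEC3G peptide 110-148; 0% = full assay without inhibitor and 100% = GST in place of GST-Vif; retest series ran down from 100 µM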
UCH37 inh = blocks the human deubiquitinase UCH37. Q9Y5K5. purified proteasome/UCH37, Ub-AMC cleavage fluorescence. inhibition, % (no concentration beside the values). 330,000 compounds, 0.33% hits. AID 588478;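 active means mean of two replicates above 20%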;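 further: 0% = compound-free wells with enzyme and 100% = wells lacking proteasome; stock transfer was 100 nL into about 20 µL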
Target sequence (Q9Y5K5 whole entry, looked up): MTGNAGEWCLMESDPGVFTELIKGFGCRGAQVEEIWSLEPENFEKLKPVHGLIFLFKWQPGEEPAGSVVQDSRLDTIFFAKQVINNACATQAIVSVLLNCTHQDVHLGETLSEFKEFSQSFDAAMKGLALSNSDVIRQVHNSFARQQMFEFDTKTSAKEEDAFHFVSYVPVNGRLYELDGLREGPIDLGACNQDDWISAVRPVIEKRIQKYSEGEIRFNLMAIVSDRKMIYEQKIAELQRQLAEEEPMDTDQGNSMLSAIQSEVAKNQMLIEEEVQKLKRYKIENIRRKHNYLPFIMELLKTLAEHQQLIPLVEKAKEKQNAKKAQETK
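Signal – fluorescence, ex 355 nm, em 460 nm · System – Proteasome-bound UCH37 · Input – 0.15 nM proteasome as dispensed · Timing – 30 min preincubation with enzyme, 25 min cleavage at room temperature · Read-out basis – percent inhibition of cleavage signal versus uninhibited and no-proteasome wells · Medium – Tris-HCl pH 7.4 with ATP-MgCl2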
E coli growth = blocks Escherichia coli growth; OD600, 23 h; hits give low values; OD600 absorbance (concentration not given with the values); 330,000 compounds, 0.21% hits;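 active means OD600 absorbance below the run mean of sample wells minus 3.6 SD, in any replicate, cut at about 0.56 in these data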;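 further: stock transfer was 300 nL into about 60 µL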
A1 inh = inhibitors of the anti-apoptotic protein A1, read as caspase activation; MEF A1-2A-BIM cells, Caspase-Glo 3/7 luminescence, 3 h; percent of clofoctol response, vehicle zero; caspase activation, % (no concentration beside the values); 330,000 compounds, 0.066% hits;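 active means over half of replicate activation scores above 10%, or exactly half above 10 with the replicate mean above 10; inconclusive means replicate mean below 10 yet half the replicates above 10; inactive means over half of replicates below 10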;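 further: wells of about 30 µL received 50 nL stock; many hits fall short of the cut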
* = called active by the depositor; ? = inconclusive; nt = not tested or not shown; & = joins results of further samples. Rows are unselected; about 2.1% have a hit in one of these screens.

Order of values – Beta2AR agonist	HNF4A DNA FP	LANA-H2B inh	Vif A3G	UCH37 inh	E coli growth	A1 inh
Cc1nnc2sc(-c3ccc(-c4ccc(Cl)c(C(F)(F)F)c4)o3)nn12
 : -8.9	-0.3	2.7	nt	-91.1	0.72	-0.1
CCc1ccc(S(=O)(=O)Nc2cccc(-c3ccc4nncn4n3)c2)s1
 : -0.8	-1.4	-0.4	nt	1.2	0.654	-4.8
CC(C)(C)c1cc(NC(=O)c2cccs2)no1
 : -6.0	-2.8	2.7	nt	-1.6	0.687	-9.4
c1ccc(CCc2nc(-c3ccccc3)no2)cc1
 : 8.7	-0.8	-4.1	-6.8%	1.1	0.684	-1.0
CCN(Cc1ccncc1)Cc1cn(C)nc1-c1ccc(Oc2ccccc2)cc1
 : -5.0	-2.3	-0.2	6.5%	1.6	0.658	0.0
COc1ccc(C)cc1NC(=O)c1ccc(S(=O)(=O)N2CCCCC2)cc1
 : 0.9	2.7	1.4	nt	-9.4	0.693	-0.2
Fc1ccc(-c2nc3cnccn3c2NC2CCCC2)cc1
 : -6.4	-3.5	-3.6	-4.0%	-324.9	0.642	-0.3
COc1ccc(-c2noc(CCC(=O)NCc3cccnc3)n2)cc1
 : -8.3	-1.1	-0.6	0.4%	2.4	0.671	0.2
Cc1ccc(-c2ccnc3[nH]n(-c4ccccc4)c(=O)c23)cc1
 : -5.3	3.2	-6.1	nt	3.3	0.681	-0.7
COc1ccc(C(=O)Nc2nnc(CCc3ccccc3)s2)c(OC)c1
 : -4.0	1.2	-1.5	nt	-0.7	0.717	0.6
Cn1c2c(c(=O)n(C)c1=O)[C@@]1(C(=O)Nc3ccccc31)C(C#N)=C(N)O2
 : -2.4	2.0	1.3	13.3%	2.6	0.627	0.0
CCOC(=O)c1c(-c2ccc(OC)cc2)csc1NC(=O)CCN1C(=O)c2ccccc2C1=O
 : -0.7	-1.0	-0.4	-11.0%	1.3	0.775	-0.1
CCN(CC)c1ccc(CNC23CN4CN(CN(C4)C2)C3)cc1
 : 0.8	-2.2	4.5	-1.0%	0.1	0.688	0.5
COc1cc(NC2c3ccccc3C(=O)N2Cc2ccccc2Cl)cc(OC)c1 (stereo not drawn)
 : -9.2	-0.4	-0.3	nt	2.5	0.677	0.0
CCc1ccc(N(C(=O)c2csnn2)C(C(=O)NC(C)(C)CC)c2cccnc2)cc1 (stereo not drawn)
 : -2.5	-1.1	-0.1	-3.4%	1.3	0.692	0.5
COc1ccc(-n2ccnc(SCC(=O)NC3CCCCC3)c2=O)cc1
 : 92.7*	0.7	1.3	nt	-16.3	0.661	-0.9
CC(=O)c1cc(-c2ccccc2)n(CC(=O)Nc2ccc(C)c(C)c2)c1C
 : 3.7	0.1	0.2	nt	0.3	0.706	1.4
CCOC(=O)C1CCCCN1Cc1ccc(F)cc1 (stereo not drawn)
 : -4.3	2.8	0.1	-1.1%	1.4	0.71	0.4
COc1ccccc1CCC(=O)Nc1ncc(C)s1
 : -0.7	-1.0	0.6	-5.2%	-0.1	0.666	0.5
C[C@H](CO)N1C[C@H](C)[C@@H](CN(C)S(C)(=O)=O)Oc2ccc(NS(=O)(=O)c3cn(C)cn3)cc2C1=O
 : 2.9	-1.4	nt	-1.4%	1.2	0.723	nt
O=S(=O)(Nc1ccc(O)c2ccccc12)c1ccc(OC(F)(F)F)cc1
 : 4.2	-2.8	1.6	nt	13.1	0.68	-0.3
O=S(=O)(Nc1cccnc1)c1ccc(C2CCCCC2)cc1
 : 2.1	2.0	-1.2	3.5%	0.2	0.746	-1.2
CC(C)(CO)N=Cc1c(O)[nH]c2ccccc12
 : 0.9	-2.7	-4.2	-8.7%	11.1	0.68	-0.5
COc1ccc(C(=O)NC(=S)NNC(=O)c2ccc(C)cc2)cc1
 : 10.5	3.0	3.7	nt	0.3	0.661	0.4
C/C=C(/CCC1NCCc2c1[nH]c1ccccc21)[Si](C)(C)C (stereo not drawn)
 : 8.8	1.6	nt	-0.3%	nt	nt	nt
CN(C)CC/C=C1/c2ccc(F)cc2Sc2ccc(Cl)cc21
 : 8.2	3.3	1.9	nt	8.6	0.613	0.3
O=C(Cc1ccccc1)Nc1ccccc1N1CCOCC1
 : 10.4	0.2	-0.8	1.7%	0.7	0.734	0.7
CCCOc1ccc(C(C)=O)cc1CC(C(N)=O)C(N)=O
 : 1.8	-0.5	-3.6	8.8%	-6.0	0.745	-0.4
CC(C)Cn1c(CN2CCN(C)C(CCO)C2)nc2ccccc21 (stereo not drawn)
 : -3.8	-2.4	3.4	nt	4.4	0.704	0.0
CC(=O)NCCn1c(SCC(=O)NC2CCCCC2)nc2ccccc2c1=O
 : 1.2	1.6	-2.6	-10.1%	0.0	0.724	0.5
COc1ccc(/C=C2\SC(=S)N(CCC(=O)N(CCO)Cc3ccccc3)C2=O)cc1OC
 : 24.4	-0.2	-4.5	-1.6%	5.1	0.654	0.2
COc1ccc(CC(=O)Nc2ccc3c(c2)C(=O)N(CCC(=O)O)C3=O)cc1
 : 0.6	-2.8	0.2	nt	4.6	0.702	0.3
O=C(NC1CCCCC1)N1CCN(c2ccccc2)CC1
 : -7.1	1.9	-0.7	-7.8%	3.1	0.682	0.6
COc1cccc(-c2nnc(SCC(=O)N3CCCc4ccccc43)o2)c1
 : -7.7	-0.5	-7.1	-3.5%&-8.1%	2.5	0.737	-1.7
O=C(Nc1nc(-c2ccccn2)cs1)Nc1ccc(F)cc1F
 : 15.7	1.3	3.0	1.4%	nt	nt	-0.8
COc1ccc(/C=C2/SC(=S)N(c3ccc(S(=O)(=O)Nc4nccs4)cc3)C2=O)cc1
 : 0.5	2.2	-5.3	-2.0%	8.8	0.663	-0.7
CSCc1cc(N(C)c2ccccc2)nc(-c2ccccc2)n1
 : -0.1	-0.9	-3.5	-7.7%	-0.8	0.648	0.0
O=C1c2ccccc2C(=O)C1c1ccncc1
 : -1.4	0.9	2.1	2.7%	13.6	0.717	-7.4
O=C(CSc1nnnn1-c1ccccc1)c1cc2ccccc2oc1=O
 : -7.0	1.2	1.1	30.2%	4.1	0.776	1.5
Cc1ccc(O)c(CNc2nccs2)c1
 : 4.7	-4.3	4.6	8.4%	3.7	0.682	-0.1
CCOC(=O)C1CCN(S(=O)(=O)c2ccc3c(c2)CC(C)N3C(=O)C2CC2)CC1 (stereo not drawn)
 : 6.3	-2.6	-5.8	nt	5.5	0.702	2.5
NC(=O)c1ccccc1NC(=O)CC1(CC(=O)O)CCCC1
 : -2.8	1.1	2.3	nt	0.9	0.664	-0.2
Cc1cc(C)cc(N(CC(=O)NC2CCC(C)CC2)S(=O)(=O)c2c(C)noc2C)c1 (stereo not drawn)
 : 0.0	-1.1	2.4	16.2%	4.4	0.766	1.0
CN(C(=S)Nc1ccc(Oc2ccccc2)cc1)C1CCCCC1
 : -11.6	2.4	-1.7	nt	4.3	0.716	0.8
Cc1ccccc1CN1CCN(CC(=O)NCc2ccc3c(c2)OCO3)C1=O
 : 5.0	4.6	-0.8	1.9%	-0.2	0.657	1.2
CC(C)(C)NC(=O)NC(=O)COC(=O)Cc1c(Cl)cccc1Cl
 : 2.1	-1.7	2.4	-7.7%	2.2	0.696	0.7
COc1ccc(NC(C)=O)cc1S(=O)(=O)NC(C)c1ccc(-n2ccnc2)cc1 (stereo not drawn)
 : -1.7	-4.1	4.1	-5.1%	-0.1	0.667	0.4
O=C(CN1CCN(S(=O)(=O)/C=C/c2ccccc2)CC1)NC(=O)NCc1ccco1
 : 5.7	-6.6	-5.9	?	-0.9	0.711	-0.1
COc1cccc(C(=O)Nc2cc(NC(=O)c3cccs3)ccc2C)c1
 : -2.5	0.8	2.5	nt	6.0	0.689	-0.1
Cn1c(N)c(N=O)c(=O)n(C)c1=S
 : -5.9	1.1	nt	-2.6%	13.9	0.655	nt
COc1ccc(CC(=O)N(Cc2ccccc2)c2ccc(C)cc2)cc1S(=O)(=O)N1CCOCC1
 : 14.9	0.9	-5.2	1.4%	-2.2	0.644	0.0
O=C(O)c1ccc(CNCc2ccc(F)cc2)cc1
 : -1.8	-3.4	-2.1	8.3%	-1.1	0.689	0.0
CCCOc1ccc(C(CC(=O)O)NS(=O)(=O)c2ccc(NC(C)=O)cc2)cc1 (stereo not drawn)
 : -2.4	-0.6	0.7	-1.4%	2.2	0.758	-0.7
O=[N+]([O-])c1cc(N=Nc2ccc3ccccc3c2)ccc1O
 : 10.3	4.0	2.6	nt	3.5	0.682	-7.4
CCOC(=O)c1c(C)[nH]c(C)c1C(=O)CSc1nc(N)cc(=O)[nH]1
 : 1.4	0.9	-4.2	-2.8%	1.4	0.649	1.3
COc1ccc(-c2csc3ncnc(NCCN4CCOCC4)c23)cc1
 : 7.2	3.6	-1.0	-1.9%	2.0	0.735	-0.1
O=C(NC1CC1)C1=C[C@@H](c2coc3ccccc3c2=O)C[C@@H](OCCCCO)O1
 : -9.8	1.9	-1.6	6.3%	1.4	nt	0.2
O=C(O)CS(=O)CC(=O)Nc1cccc(C(F)(F)F)c1 (stereo not drawn)
 : 12.3	0.9	13.0	5.1%	0.7	0.712	-0.8
CCOc1ccc(/C=C/c2c([N+](=O)[O-])c(=O)n(C)c(=O)n2C)cc1
 : -0.9	-3.4	-3.1	nt	5.9	0.712	-0.1
COc1ccc(C(=O)C[n+]2ccccc2/C=N/O)cc1
 : 0.9	1.2	-2.7	10.8%	nt	nt	0.1

(more compounds)
Order of values – Beta2AR agonist	HNF4A DNA FP	LANA-H2B inh	Vif A3G	UCH37 inh	E coli growth	A1 inh
COc1ccc(Cl)c(NC(=O)NCCN2CCN(c3ccccc3)CC2)c1
 : 11.6	-0.6	-2.7	9.9%	3.5	0.721	0.2
Cc1cc(Cn2ccnc2)c(C)cc1Cn1ccnc1
 : -12.7	-4.3	3.0	-0.4%	0.2	0.728	-0.3
CC1(C)CC(=O)C=C(Nc2ccc(C(=O)O)c(O)c2)C1
 : 2.0	-2.2	-2.0	8.0%	7.6	0.688	0.4
Fc1ccccc1CSc1nc2ncc(Br)cc2[nH]1
 : 3.5	2.1	-0.2	?	3.9	0.74	-0.2
COCc1cc(=O)[nH]c(/N=C(\N)Nc2c(F)cccc2F)n1
 : 9.4	0.3	-2.2	4.4%	nt	nt	0.8
COc1ccc(CNc2ccc([N+](=O)[O-])cc2C)cc1
 : 11.2	-1.1	-3.2	7.7%	3.7	0.683	0.0
COc1ccccc1CN1C[C@@H]2C[C@@H](c3ccccc3OC)N3CCC[C@@]23C1=O
 : 10.0	9.0	-1.0	7.2%	0.5	0.699	0.9
O=C(O)CCCC(=O)Nc1ccc(-n2ccc(C(F)(F)F)n2)cc1
 : -0.7	-6.0	0.2	0.5%	1.9	0.664	0.0
COc1ccc(-c2nnc(SC(C)C(=O)Nc3cccc(Cl)c3)o2)cc1 (stereo not drawn)
 : -1.4	-2.4	3.6	4.4%	0.0	0.701	0.0
O=C(NCc1cccnc1)c1cc(-c2ccc(Cl)cc2)oc1C(F)(F)F
 : -3.5	-1.9	-0.6	nt	nt	nt	0.0
Cn1cccc1C(=O)NNC(=O)COc1ccccc1F
 : -6.7	3.4	-1.4	1.6%	4.2	0.731	0.4
Cc1ccc(S(=O)(=O)NCCC(=O)N2CC(C)OC(C)C2)cc1 (stereo not drawn)
 : -1.1	-2.3	7.7	-6.6%	2.2	0.714	0.3
Brc1ccc(/C=N/Nc2ncnc3c2cnn3Cc2ccccc2)cc1
 : -3.5	3.0	10.5	0.9%	nt	nt	-0.4

High-throughput results (PubChem BioAssay)
